HPGD block = qHTS Assay for Inhibitors of HPGD (15-Hydroxyprostaglandin Dehydrogenase); 15-hydroxyprostaglandin dehydrogenase [NAD(+)] (Homo sapiens), P15428; purified HPGD, NADH fluorescence kinetic, PGE2 substrate; Potency, µM, for the others: top-dose activity change, negative = inhibition, hits mostly inhibitors; AID 894, 2007; actives 4.3% (n = 150,000); active = well fitted inhibition curve with a large enough effect (not every such curve was filed as active); inconclusive = small, poorly fitted or top-dose-only effect, or another doubt; inactive = no such curve, though single readings can be large or run the other way;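 note: top concentration of the series not given in the record; plate controls included wells without enzyme; inactives centre near -10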
Target sequence (P15428 whole entry, looked up): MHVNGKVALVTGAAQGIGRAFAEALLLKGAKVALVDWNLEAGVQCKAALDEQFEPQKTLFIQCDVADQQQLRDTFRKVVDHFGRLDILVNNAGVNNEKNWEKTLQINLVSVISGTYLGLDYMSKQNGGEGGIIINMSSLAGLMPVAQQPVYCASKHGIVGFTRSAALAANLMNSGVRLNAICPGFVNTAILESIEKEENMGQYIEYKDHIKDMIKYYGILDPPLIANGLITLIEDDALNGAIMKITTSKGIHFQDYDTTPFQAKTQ
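20 nM HPGD preincubated 15 min at room temperature with compound in 50 mM Tris-HCl pH 8, 0.01% Tween 20. Started with 1 mM NAD+ and 30 uM prostaglandin E2; NADH fluorescence (360/450 nm) read 5 times over 30-s intervals, last minus first.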
Starred values were filed as active, the others as inactive; ? = inconclusive. % is set by controls: 0 for no effect and ±100 for the full control effect; potency is the fitted concentration of half-maximal effect.

SMILES | HPGD block
Cc1ccc(CNC(=O)[C@H]2C[C@@H]2[C@H](NP(=O)(c2ccccc2)c2ccccc2)c2ccccc2)c(F)c1F | -8%
Cc1ccc(S(=O)(=O)CCC(=O)NCCN2C(=O)S/C(=C/c3ccc(F)cc3)C2=O)cc1 | -2%
Cc1cccc(S(=O)(=O)c2c(N)n(/N=C/c3ccco3)c3nc4ccccc4nc23)c1 | ?
N#Cc1nc(COc2cccc(Cl)c2)oc1N1CCCC1 | -15%
COc1cccc(CNC(=O)Cn2c(=O)oc3ccccc32)c1OC | -24%
CSc1nc2ccccc2cc1/C=C(\C#N)c1cccc(C)c1 | ?
CCCC(=O)Nc1c2c(nn1-c1ccc(OC)cc1)CS(=O)(=O)C2 | -9%
CCOC(=O)c1cc2sc(C)cc2n1CC(=O)NCc1ccc(F)cc1 | -10%
CC(=O)N1CCc2cc(Br)cc(S(=O)(=O)NCCCN3CCC(C)CC3)c21 | -3%
c1ccc(CSc2ccc3nnc(-c4cccnc4)n3n2)cc1 | -15%
CCOC(=O)C1CCCN(C/C=C/c2ccccc2[N+](=O)[O-])C1 (stereo not given) | -5%
CS(=O)(=O)N1N=C(c2ccco2)CC1c1ccc(Br)cc1 (stereo not given) | -9%
O=c1c2ccccc2nc(SCc2nc3ccccc3s2)n1CCCO | -20%
O=S1(=O)Nc2c(ccc3cccnc23)-c2ccccc21 | -20%
CC(SC1CCCC1)C(=O)NC(C)(C#N)C(C)C (stereo not given) | -1%
Cc1c(Cl)cccc1Nc1nc(N)nc(CN2CCCCCC2)n1 | -9%
N#Cc1ccccc1Sc1ccccc1C(=O)OCC(=O)NC12CC3CC(CC(C3)C1)C2 | 13µM*
c1ccc(Nc2c3c(nc4ncnn24)CCC3)cc1 | -5%
COc1ccc(C=O)cc1OS(=O)(=O)c1ccc(NC(C)=O)cc1 | ?
O=C(CCNS(=O)(=O)c1cccc2nsnc12)NCCc1ccccc1 | -15%
CCN(CC)Cc1cc(NC2=NS(=O)(=O)c3ccccc32)ccc1OC(=O)c1ccccc1 | -12%
c1nc(N2CCNCC2)c2sc3nc(N4CCOCC4)c4c(c3c2n1)CCC4 | -5%
COC(=O)C1=NNC2(c3ccc(C)cc3)C(=O)N(c3cccc(C)c3C)C(=O)C12 (stereo not given) | -8%
C=CCc1cccc(CNc2nc3ccccc3n2C(C)C)c1O | -6%
CCNC(=O)CSc1nnc(-c2ccccc2Br)n1-c1cccc(C(F)(F)F)c1 | -10%
Cc1cc2c(cc1C)C(c1ccccc1Br)CC(=O)N2 (stereo not given) | -30%
Cc1[nH]c(N)nc(=S)c1CCCNc1ccccc1 | -19%
Cn1c(SCC(=O)Nc2ncc(C(F)(F)F)cc2Cl)nnc1-c1ccc(Cl)cc1 | -7%
CCCn1c(=O)[nH]c2ccccc21 | -8%
Cn1c(SCc2nc3ccccc3c(=O)[nH]2)nnc1-c1ccco1 | -6%

As entered above.
Cc1cc2c(cc1C)C(c1ccccc1Br)CC(=O)N2 (stereo not given) | HPGD block: -30%
N#Cc1ccccc1Sc1ccccc1C(=O)OCC(=O)NC12CC3CC(CC(C3)C1)C2 | HPGD block: 13µM*

(more compounds)
SMILES | HPGD block
CCCOc1ccc(N2C(=O)CC(N(O)c3ccccc3)C2=O)cc1 (stereo not given) | 4%
CCN(CC)c1ccc(/C=C2/C(=O)N(c3ccc([N+](=O)[O-])cc3)N=C2N2CCOCC2)cc1 | -17%
CCCn1cnc2cc(NCc3cccc(OC)c3)ccc21 | -21%
COc1cccc(-n2nnc3c(=O)n(Cc4ccc(F)cc4)cnc32)c1 | 28µM*
Cc1nn(Cc2ccccc2Cl)c(C)c1NC(=O)CCCn1nc(C)c([N+](=O)[O-])c1C | -9%
Cc1ccccc1NC(=O)Cn1nc(C(F)(F)F)cc1C1CC1 | -13%
COCC(C)n1c(C)cc(C(=O)COc2ccc(S(=O)(=O)N3CCOCC3)cc2Cl)c1C (stereo not given) | -14%
C=CCNC(=S)N1CCN(c2ncc3c(=O)c(C(=O)O)cn(CC)c3n2)CC1 | -26%
COc1ccc(NC(=O)COC(=O)C23CCC(=O)N2c2ccccc2S3)cc1 (stereo not given) | -8%
O=C1c2ccccc2-c2nnc(-c3ccccc3)cc21 | -4%
CCCNC(=O)COC(=O)c1cc(SC)ccc1Cl | -17%
COC(=O)c1ccc(S(=O)(=O)N(Cc2cc3cc4c(cc3[nH]c2=O)OCO4)C2CCCCC2)cc1 | -12%
CCN(CC)c1ccc(/C=N/N2C(=O)c3ccccc3C2=O)cc1 | -19%
CC1(CC(=O)O)O[C@H]2CCCCC[C@H]2O1 (stereo not given in full) (tested in a mixture with another compound) | -8%
CC(CC(=O)O)(CC(=O)O)C(=O)O | -1%
CC(/C=C/c1ccc(Cl)o1)=C\C(=O)O | -25%
CCOC(=O)NCN1C(=O)C2C3C=CC(C3)C2C1=O (stereo not given) | -14%
CCN1c2ccccc2-c2nc3ccccc3n2C1c1cccnc1 (stereo not given) | ?
CCc1ccc(CCC(=O)Nc2ccc(C)cc2C)o1 | -8%
N#Cc1cc(-c2cccc(Cl)c2)c[nH]c1=O | -19%
COc1ccc(C(=O)C(OC(=O)c2ccccc2Cl)c2ccccc2)cc1 (stereo not given) | -8%
CNc1ccc(/C=C/C(=O)c2ccc(C)cc2)cc1[N+](=O)[O-] | -17%
[O-]/C(=C(\C(=S)NCc1ccco1)[n+]1ccccc1)c1ccccc1Br | -5%
CCOc1ccc(/C=N/OC(C)C(=O)NCc2ccc3c(c2)OCO3)cc1 (stereo not given) | -21%
COc1cccc(C(=O)NNC(=O)C2CC(C)=C(C)CC2C(=O)O)c1 (stereo not given) | -6%
O=C(NCCc1c[nH]c2ccccc12)C(=O)NCC(c1ccco1)N1CCN(c2ccccc2F)CC1 (stereo not given) | 0%
CCC(C)(C)n1nnnc1C(c1ccc(OC)c(OC)c1)N1CCN(c2ccc(F)cc2)CC1 (stereo not given) | -12%
Cc1ccc(C)c(/C=N/NC(=S)NC(C)C)c1 | -11%
COc1ccc(OC)c(-c2c[n+](=O)c3c(n2[O-])CCCC3)c1 | -9%
COC(=O)CCC(=O)NNC(=O)c1cccc(Br)c1 | -13%

The final 6 records of the part above come first, to join the parts.
SMILES | HPGD block
COc1cccc(C(=O)NNC(=O)C2CC(C)=C(C)CC2C(=O)O)c1 (stereo not given) | -6%
O=C(NCCc1c[nH]c2ccccc12)C(=O)NCC(c1ccco1)N1CCN(c2ccccc2F)CC1 (stereo not given) | 0%
CCC(C)(C)n1nnnc1C(c1ccc(OC)c(OC)c1)N1CCN(c2ccc(F)cc2)CC1 (stereo not given) | -12%
Cc1ccc(C)c(/C=N/NC(=S)NC(C)C)c1 | -11%
COc1ccc(OC)c(-c2c[n+](=O)c3c(n2[O-])CCCC3)c1 | -9%
COC(=O)CCC(=O)NNC(=O)c1cccc(Br)c1 | -13%
O=C(CSc1nc2c(sc3ccccc32)c(=O)n1CCO)NCc1ccco1 | -28%
CCCCCCCCCS(=O)(=O)N/N=C/c1cccc([N+](=O)[O-])c1 | 20µM*
Cc1cccc(-n2ncc3c(N4CC(C)CC(C)C4)ncnc32)c1 (stereo not given) | -30%
O=C(CSc1nnc(SCc2ccc(Cl)cc2)s1)N/N=C/c1c[nH]c2ccccc12 | -18%
CCOC(=O)CNC(=O)c1ccc2c(c1)OCCO2 | -20%
CCCOC(=O)CCn1c(=S)oc2ccccc21 | -15%
O=C(CNCC1CCCCC1)Nc1ccccc1N1CCCCC1 | -4%
O=C(NCCOCC(F)(F)C(F)F)c1cc(F)c(F)cc1Cl | -16%
CC1(OC(=O)CCc2ccccc2)C(=O)C=C2C=C(c3ccc(C#N)cc3)N(C3CC3)C=C2C1=O (stereo not given) | -5%
COc1ccc(C(=O)COc2cccc(NC(=O)c3ccco3)c2)cc1 | -20%
Cc1cc(C)c(C(=O)COC(=O)Cn2cnnn2)cc1C | -14%
CC(=O)Nc1cc(NC(C)=O)c2nc(N)sc2c1 | -6%
C/C(=N/NC(=O)c1cc(C2CC2)[nH]n1)c1cccs1 | -2%
COc1cc(/C=N/NC(=O)C(Cc2c[nH]c3ccccc23)NC(=O)OCc2ccccc2)cc([N+](=O)[O-])c1O (stereo not given) | ?
COc1ccc(-c2cc(OC)c3ccccc3n2)cc1 | ?

3 entries already listed, sorted by number of heavy atoms, smallest number first.
SMILES | HPGD block
C/C(=N/NC(=O)c1cc(C2CC2)[nH]n1)c1cccs1 | -2%
CCCCCCCCCS(=O)(=O)N/N=C/c1cccc([N+](=O)[O-])c1 | 20µM*
O=C(CSc1nc2c(sc3ccccc32)c(=O)n1CCO)NCc1ccco1 | -28%

More structures:
SMILES | HPGD block
O=C(NC1CC2CCC1C2)C1COc2ccccc2O1 (stereo not given) | 14µM*
CCCn1c(CN2CCN(C(=O)c3ccco3)CC2)nc2c1c(=O)n(C)c(=O)n2C | -6%
COC(=O)c1cc(OC)c(OC)cc1NC(=O)Nc1ccc(OC)cc1OC | -26%
Cc1ccc2c(c1)N(CC(=O)NCc1ccco1)C(=O)CO2 | -3%
COc1ccccc1-n1c(=S)sc2c(=O)n(Cc3ccco3)c(SC)nc21 | -28%
O=C(NS(=O)(=O)c1ccccc1)c1ccccc1 | -6%
CCOC(=O)CSc1nc2ccc(C)cc2cc1C#N | -10%
O=C(Nc1cccc2nsnc12)c1ccc2c(c1)OCCO2 | ?
CCc1cccc(C)c1NC(=O)CSc1nc(-c2ccccc2F)nc2nc[nH]c12 | -19%
C=CCOC(=O)C1=C(C)NC(SCC(=O)OCC)=C(C#N)C1c1ccc(O)c(OC)c1 (stereo not given) | -15%
C1CCN2C[C@@H]3C[C@@H](CN4CCCC[C@@H]34)[C@H]2C1 | -5%
COc1ccc(C(O)P(=O)(O)CCc2ccccc2)cc1 (stereo not given) | -10%
COc1ccc(NC(=O)COC(=O)Cn2c(C)nc3ccccc32)cc1OC | -1%
O=C(NC(=S)N1CCN(c2ccc(C(F)(F)F)cc2[N+](=O)[O-])CC1)c1cccs1 | -14%
CCc1ccc2nc(NC(=O)c3cc(C)on3)sc2c1 | ?
O=C(Nc1ccc(OCC(=O)N2CCN(S(=O)(=O)c3ccccc3)CC2)cc1)c1ccco1 | -16%
COc1ccc2oc(-c3ccc(C)c(NC(=O)c4ccc(N5CCOCC5)c([N+](=O)[O-])c4)c3)nc2c1 | -11%
Cc1ccc(-c2nnc(SCC(=O)NC3CCCc4ccccc43)n2N)cc1 (stereo not given) | -7%
NS(=O)(=O)c1ccc(CNC(=O)/C=C/c2ccccc2)cc1 | -11%
C=CCn1cnc2c(c1=O)c1nc3ccccc3nc1n2/N=C/c1ccccn1 | ?
CCOc1ccc(CN2CCCN(C)CC2)cc1 | -1%
CCOc1ccc(/C=N/n2c(SC)nnc2-c2ccccc2)cc1OCC | -7%
COC(=O)CCc1n[nH]c(=O)[nH]c1=O | -4%
COc1cccc(Cn2c(Oc3ccccc3)nc3c2c(=O)n(C)c(=O)n3C)c1 | -22%
c1cc(CNCCN2CCNCC2)ccn1 | -1%
CC(C(=O)Nc1ccccc1C(=O)N1CCCC1)n1nnc2ccccc21 (stereo not given) | 0%
Cc1ccc(N2C(=O)N(CC(=O)N(C)Cc3ccccc3)C(=O)C2C)cc1 (stereo not given) | -4%
CCn1nnc(-c2ccccc2NC(=O)C(F)(F)F)n1 | -12%
COc1ccc(C(C)=O)cc1COC(=O)c1ccc(S(=O)(=O)N2CCOCC2)cc1 | -4%
COc1ccc(CNc2ccnc(-c3ccccc3C(F)(F)F)n2)c(OC)c1 | -12%

Reprinted from the part before: 2 compounds, followed by the next part.
SMILES | HPGD block
COc1ccc(C(C)=O)cc1COC(=O)c1ccc(S(=O)(=O)N2CCOCC2)cc1 | -4%
COc1ccc(CNc2ccnc(-c3ccccc3C(F)(F)F)n2)c(OC)c1 | -12%
O=C1c2ccccc2NC(c2ccc(-c3cccc(Cl)c3)o2)N1O (stereo not given) | ?
Clc1ccccc1-c1nc(N2CCNCC2)c2ccccc2n1 | -13%
O=Cc1c(Sc2ccccc2)nc2ccccn2c1=O | -15%
Cc1[nH]n(-c2ncc(-c3ccccc3)s2)c(=O)c1C(c1ccc(Br)cc1)C(C#N)C#N (stereo not given) | 10µM*
O=C(CCNS(=O)(=O)c1cccc2nsnc12)NC1CCN(Cc2ccccc2)CC1 | -19%
CC(=O)NCc1c(I)c(NC(C)=O)c(I)c(C(=O)O)c1I | -8%
c1cc2c(cn1)cnc1cscc12 | -26%
O=C(NC1CCCCCC1)c1cc(S(=O)(=O)N2CCC3(CC2)OCCO3)ccc1F | -7%
O=C(NCCCCCCCCCNC(=O)C(F)(F)F)C(F)(F)F | -11%
CCCc1cc(C(=O)Nc2ccc(C)cc2)no1 | -3%
COc1ccccc1/C=C1/C(=O)N(c2cc(C)cc(C)c2)C(c2cccc([N+](=O)[O-])c2)S1(=O)=O (stereo not given) | ?
CC(C)S(=O)(=O)C1=NSC2=NC(=O)/C(=C\c3ccc(-c4ccccc4)o3)C(=N)N21 | -23%
O=C(Nc1ccc(OC(=O)c2cccnc2)cc1)c1cccnc1 | -4%
Cc1cc(C)c2c(=O)[nH]c(SCC(=O)NCCc3ccccc3)nc2n1 | -11%
COc1ccc(CCN(C)C(=O)N2CCOCC2)cc1OC | -7%
CCOC(=O)C1=NN(c2ccc(C)cc2)CC1C(=O)OC (stereo not given) | -19%
CC1(C)CC(=O)C(/C=N/c2ccccn2)=C(O)C1 | -18%
CC(=O)OCC(=O)[C@@]12OC(C)(C)OC1CC1C3CC(F)C4=CC(=O)C=C[C@@]4(C)[C@@]3(F)C(O)C[C@]12C (stereo not given in full) | 0%
O=C(NC(=S)Nn1cnnc1)c1cccc(Br)c1 | 22µM*
COc1cc2c(cc1OC)CN(CC(=O)Nc1ccc(C)cc1)CC2 | -15%

These rows are one share of the data (hit frequency here may not be typical).
